Screening results (PubChem BioAssay)
D2 PAM = potentiates the human D2 dopamine receptor allosterically. AID 624464. DiscoveRx D2 beta-arrestin cells, luminescence, 90 min; 100% = 57 uM dopamine signal. actives 0.23% (n = 360,000). potentiation, % (concentration not given with the values). P14416; active = potentiation of 50% or more; inconclusive = 30% to 50%; inactive = 30% or less;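 also: compound concentration not given in the record; tested on top of an EC20 dose of dopamine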
Target sequence (P14416 whole entry, looked up): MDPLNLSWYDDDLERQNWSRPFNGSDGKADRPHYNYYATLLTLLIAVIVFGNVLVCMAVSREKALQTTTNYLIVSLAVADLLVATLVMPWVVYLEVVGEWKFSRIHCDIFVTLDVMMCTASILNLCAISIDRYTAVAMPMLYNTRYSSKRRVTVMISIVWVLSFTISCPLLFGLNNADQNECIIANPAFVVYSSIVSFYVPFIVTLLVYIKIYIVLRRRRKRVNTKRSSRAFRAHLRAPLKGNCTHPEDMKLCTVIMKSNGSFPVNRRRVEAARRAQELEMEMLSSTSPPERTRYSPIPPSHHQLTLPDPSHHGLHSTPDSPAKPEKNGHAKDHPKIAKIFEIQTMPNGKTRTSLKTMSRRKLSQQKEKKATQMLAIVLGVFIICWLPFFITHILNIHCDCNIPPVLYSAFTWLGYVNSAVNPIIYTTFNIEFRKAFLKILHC
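PathHunter D2 cells, attached overnight at 37 deg C, received compound in DMSO plus dopamine at EC20 (50 nM final) for 90 min at 37 deg C. Beta-arrestin recruitment was read as luminescence after 1 h with detection reagent at ambient temperature.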
Six1-Eya2 blk = inhibitors of human Six1/Eya2 interaction; Q15475+O00167; AlphaScreen GST-Six1/His-Eya2 binding, biochemical; stronger effect = lower value; control for the full effect not named in the record; actives 0.56% (n = 360,000); activity change, % (test concentration not listed); in the data active = activity change below about -65%; inconclusive = about -30% to -65%; inactive = above about -30%; also: % is scaled to controls: 0 for no effect and ±100 for the full control effect; compound concentration not given in the record
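Compounds are tested against tagged Six1 and Eya2 proteins bridged by glutathione donor and nickel acceptor beads; after a one-hour incubation at 37 °C without light, AlphaScreen emission is recorded.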
TRPML1 agonist = agonists of human TRPML1 channel; Q9GZU1; TRPML1-expressing cells, Ca2+ dye fluorescence, FDSS; host cell line not named in the record; reference of the full effect not given here; activation, % (concentration not given with the values); actives 0.12% (n = 410,000); AID 624414; in the data active = activation above about 50%; inconclusive = about 30% to 50%; inactive = below about 30%; also: 0% is about no effect; the text of the record puts the active cut at 80%
Target sequence (Q9GZU1 whole entry, looked up): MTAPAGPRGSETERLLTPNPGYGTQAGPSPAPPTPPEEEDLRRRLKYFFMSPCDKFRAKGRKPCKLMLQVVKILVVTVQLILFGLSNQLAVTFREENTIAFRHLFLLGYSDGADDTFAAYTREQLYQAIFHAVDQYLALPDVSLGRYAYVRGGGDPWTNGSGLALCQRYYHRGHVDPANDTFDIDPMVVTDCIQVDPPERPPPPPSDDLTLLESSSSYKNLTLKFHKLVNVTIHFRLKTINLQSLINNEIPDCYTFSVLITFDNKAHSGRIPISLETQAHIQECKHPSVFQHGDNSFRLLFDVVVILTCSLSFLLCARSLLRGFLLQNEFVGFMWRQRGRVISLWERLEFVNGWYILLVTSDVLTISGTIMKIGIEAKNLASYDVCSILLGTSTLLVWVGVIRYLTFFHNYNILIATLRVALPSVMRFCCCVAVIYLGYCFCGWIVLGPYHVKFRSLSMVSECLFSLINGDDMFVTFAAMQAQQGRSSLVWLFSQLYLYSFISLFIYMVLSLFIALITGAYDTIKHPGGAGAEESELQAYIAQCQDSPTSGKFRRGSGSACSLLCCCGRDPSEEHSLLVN
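Tet-induced TRPML1-DL cells, 1,500 per well, cultured overnight, were loaded with a no-wash Ca2+ dye for 45–90 min. Calcium fluorescence was recorded on the FDSS for 110 s after compound addition, before the EC80 agonist (4 uM 54-4) was added.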
TRPML1 blocker = human mucolipin-1 channel inhibition | TRPML1-inducible cells, Ca2+ dye fluorescence, FDSS; stronger effect = lower value; inhibition of EC80 agonist-evoked calcium signal | activity change, negative = inhibition, % (test concentration not listed) | actives 0.02% (n = 390,000); in the data active means activity change below about -50%; inconclusive means about -30% to -50%; inactive means above about -30%;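 also: stimulus is agonist 54-4 at its EC80 concentration; % is scaled to controls: 0 for no effect and ±100 for the full control effect; compound concentration not given in the record; the text of the record puts the active cut at -80%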
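Tet-induced TRPML1-DL cells loaded with Ca8 no-wash calcium dye were read kinetically on FDSS. Compound addition was followed by EC80 agonist 54-4 (4 uM final); inhibition was read over 110 s.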
CtBP-E1A inh = CtBP/E1A binding inhibition; actives 0.49% (n = 340,000); AID 651724; AlphaScreen GST-E1A/His-CtBP binding, 1536-well; stronger effect = lower value; control for the full effect not named in the record; activity change, % (test concentration not listed); in the data active means activity change below about -65%; inconclusive means about -30% to -65%; inactive means above about -30%; also: % is scaled to controls: 0 for no effect and ±100 for the full control effect; compound concentration not given in the record
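Protein mix (5X: 125 nM each GST-E1A, His-CtBP) was incubated with pinned compound 2 h at 37 deg C in dark, in 50 mM Tris pH 8.0 buffer with 300 mM NaCl. Glutathione donor and nickel acceptor beads followed; AlphaScreen signal read after 1 h.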
TRPV1 potentiator = enhances activation of the human vanilloid receptor TRPV1 | potentiation, % at 8.33 µM | TRPV1-expressing cells, Fluo-8 calcium influx, capsaicin EC20 potentiation; host cell line not named in the record; control for the full effect not named in the record | actives 0.02% (n = 320,000); active means potentiation above 80%; inconclusive means 30% to 80%; inactive means below 30%; also: 0% is about no effect
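TRPV1-expressing cells were cultured overnight at 35.5C and loaded with Fluo-8 calcium dye for 40 to 90 min at room temperature. After a 10 s baseline, compound was added and calcium influx was read kinetically for 3 min (ex 480/em 520 nm).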
* = called active by the depositor; ? = inconclusive; · = no result given. Rows were taken by chance; overall some 0.95% were active at least once.

SMILES | D2 PAM | Six1-Eya2 blk | TRPML1 agonist | TRPML1 blocker | CtBP-E1A inh | TRPV1 potentiator
CN(CC(=O)Nc1cccc(F)c1)CC(=O)N1CCc2ccccc21 | -12 | -5 | 0.0 | -4 | 3 | 1
CC(C)S(=O)(=O)C/C(N)=N/OC(=O)c1cc(Cl)cc(Cl)c1 | ? | 8 | -0.2 | 7 | 7 | -15
COC(=O)COc1ccc(S(=O)(=O)Nc2ccc3c(c2)OCCO3)cc1C | 0 | -5 | 0.3 | -5 | -1 | 3
O=C1CC(c2ccccc2)n2nc(NC(=O)C3CCCO3)nc2N1 (configuration not stated) | 4 | 6 | 0.6 | 0 | 6 | 0
CC1(C)C(=O)Nc2ccccc2N1C(=O)COC(=O)CSc1ccc(Cl)cc1 | -10 | -6 | 2.4 | 3 | · | -9
COc1ccccc1-n1c(SCC(=O)Nc2ccccc2F)nc2[nH]ncc2c1=O | 3 | -8 | 0.5 | -7 | 6 | -23
O=C1OCCC1Sc1nc(-c2ccccc2)cs1 (configuration not stated) | -11 | 16 | 0.1 | -9 | 2 | 19
CC(C)(C)C(=O)Nc1nnc(SCC(=O)NC2CCCCC2)s1 | -1 | 15 | 1.3 | 51 | 0 | 7
CCn1cc(Cl)c(C(=O)Nc2cccc(C(F)(F)F)c2)n1 | -2 | 9 | 1.4 | 3 | 0 | -3
COc1ccc(C(=O)N(CCN2CCOCC2)CC(=O)NC2CCCC2)cc1OC | -12 | 6 | 0.1 | 0 | 5 | -7
COCCC(=O)N1CCC(Oc2ccc(C(=O)N3CCCC(CCCO)C3)cc2)CC1 (configuration not stated) | -12 | 12 | -0.1 | 4 | 12 | -7
Cc1ccc(N2CC(C(=O)Nc3nc4ccc(S(C)(=O)=O)cc4s3)CC2=O)cc1 (configuration not stated) | 7 | -3 | -0.4 | -13 | 0 | -25
FC(F)(F)c1ccccc1Cc1c(-c2cccc(Cl)c2)nc2c3ccccc3ccn12 | · | -2 | 1.5 | · | 0 | ·
CC(C)(C)C1CCNC(=O)CC1 (configuration not stated) | -4 | 1 | -0.4 | 4 | 1 | ·
Cc1ccc(NC(=O)CCCC2CCCCC2)c(O)c1 | -3 | 2 | 0.1 | -4 | 9 | 1
CC(=O)O[C@]1(C(C)=O)CC[C@H]2[C@@H]3C=C(C)C4=CC(=O)CC[C@@H]4[C@H]3CC[C@@]21C | -6 | -4 | -0.6 | 18 | 1 | -10
CCOCCCNC(=O)c1cc2c(=O)n3cccc(C)c3nc2s1 | -8 | -10 | · | · | -3 | -5
CCCCn1cc(S(=O)(=O)c2ccccc2)c(=O)c2cc(C)ccc21 | -4 | -6 | 0.4 | 38 | · | -22
CC(=O)c1cc2c(cc1NC(=O)Cn1nc(-c3ccc(C)cc3)ccc1=O)OCO2 | -8 | 9 | -0.8 | 0 | 16 | -10
COc1ccc(C(CC(=O)c2ccc(C)cc2)Nc2ccc([N+](=O)[O-])cc2)cc1 (configuration not stated) | -21 | -28 | -0.3 | 47 | 4 | 1

Remaining list, next part:
SMILES | D2 PAM | Six1-Eya2 blk | TRPML1 agonist | TRPML1 blocker | CtBP-E1A inh | TRPV1 potentiator
O=C(COc1ccc(F)cc1)NCC1CCCO1 (configuration not stated) | -4 | 2 | 0.1 | -17 | -5 | 0
COc1ccc(C(c2nnnn2C2CCCC2)N2CCN(C3CCCC3)CC2)cc1OC (configuration not stated) | -20 | -2 | -0.1 | -3 | 3 | 1
CCC(=O)Nc1cccc(C(=O)/C=C/c2cc(Br)ccc2OC)c1 | -23 | 0 | 0.0 | -22 | 2 | 14
Cc1cccc(S(=O)(=O)c2c(N)n(/N=C/c3ccccc3)c3nc4ccccc4nc23)c1 | 1 | 5 | -0.2 | 11 | -10 | -5
O=C(CCc1c[nH]c2ccccc12)NCc1cccc(Cl)c1 | -4 | -6 | 0.6 | 3 | -11 | -4
COc1cccc(CCC(=O)N2CCC(n3nccc3NC(=O)CC(C)C)CC2)c1 | -7 | 5 | -0.8 | 4 | 2 | 15
O=C(Nc1ccccc1C(=O)O)c1cccc(NC(=O)c2ccccc2Cl)c1 | 64* | -3 | · | · | · | -9
Cc1ccc(NC(=S)N2CCC(N(C)CC3CCCO3)CC2)c(C)c1 (configuration not stated) | 1 | 0 | 0.7 | 12 | 2 | 0
O=C(O)CC1CCC(=C(Cl)Cl)C1 (configuration not stated) | -13 | -4 | 1.3 | -2 | 6 | -5
O=C(Nc1ccccc1F)C(c1ccccc1)c1ccccc1 | -3 | 24 | 1.9 | -6 | 2 | ·
CO/N=C/NC(=O)c1cn(-c2ccc(F)cc2)c(=O)c2ccccc12 | 4 | 4 | -0.2 | -6 | 5 | -8
FCCCOc1ccc(-c2nccc(-c3ccc(F)cc3)n2)cc1 | -5 | 0 | 0.4 | -9 | 33 | 7
COc1ccccc1C(=O)ON=C1c2ccccc2-c2ccccc21 | -25 | -15 | 0.6 | 3 | -26 | -4
CC(O)CNc1nc2c(c(=O)n(C)c(=O)n2C)n1Cc1cccc(C(F)(F)F)c1 (configuration not stated) | 15 | -1 | 0.6 | -18 | -5 | -2
Nc1nnc(CSCc2ccc(Cl)cc2Cl)s1 | 10 | 2 | 0.4 | 37 | 0 | 1
O=C(Cc1n[nH]c(=O)c2ccccc12)NCc1ccccc1 | -1 | -2 | 0.0 | 6 | 4 | -4
O=C(COC(=O)Cn1cc(C(F)(F)F)ccc1=O)NCc1ccccc1 | -16 | 9 | 1.0 | 1 | -2 | -1
CCOC(=O)c1cc(C)n(Cc2cccc(OC)c2OC)c1C | 22 | -11 | 0.3 | 6 | -5 | -2
Cc1cc(C(=O)Oc2cccnc2)ccc1[N+](=O)[O-] | -12 | ? | -0.8 | 4 | 3 | -8
CC(C(=O)NC1C(=O)N2C(C(=O)O)=C(CSc3nnnn3C)CSC12)n1cc(Br)cn1 (configuration not stated) | -9 | -7 | 0.0 | 50 | -2 | 7

D2 PAM, what is marked active above.
SMILES	D2 PAM	Six1-Eya2 blk	TRPML1 blocker	CtBP-E1A inh
O=C(Nc1ccccc1C(=O)O)c1cccc(NC(=O)c2ccccc2Cl)c1	64*	-3	·	·

More compounds:
Every second line gives: D2 PAM	Six1-Eya2 blk	TRPML1 agonist	TRPML1 blocker	CtBP-E1A inh	TRPV1 potentiator
O=C(CSc1nnc2nnc3ccccc3n12)N1CCOCC1
  -15	0	2.1	-14	2	6
Cc1ccc(NC(=O)CNc2ccc(N3CCOCC3)cc2)cc1S(=O)(=O)N(C)C
  0	-1	-0.2	45	0	22
OCCC1CN(Cc2c(F)cccc2Cl)CCN1C1CCCCC1 (configuration not stated)
  -16	2	-0.3	-10	1	1
CCCCC(CCC(=O)O)(C(=O)OCC)c1csc(N)n1 (configuration not stated)
  12	13	-0.6	9	7	5
Cc1ccccc1N(CC(=O)N1CCCC1)S(=O)(=O)c1ccc(Cl)cc1
  -12	-1	-0.2	10	2	·
O=S1(=O)C[C@@H](O)[C@@H](Nc2ccccc2)C1
  -17	4	0.2	-3	9	0
O=C1C2C3C=CC(C3=C(c3ccccc3)c3ccccc3)C2C(=O)N1CCO (configuration not stated)
  -6	-2	0.8	10	-13	-13
Cc1ccc(S(=O)(=O)N2CCCCC2)cc1C(=O)N(CCc1ccccc1)Cc1ccccc1
  -13	-7	0.0	1	3	?
Oc1cc(O)c2c(c1)O[C@H](c1ccc(O)c(O)c1)[C@H](O)C2
  2	-6	-0.8	-11	3	-12
COc1ccc(/C=N/NC(=O)c2nnn(-c3nonc3N)c2CN(C)C2CCCCC2)cc1
  -27	-3	0.1	24	-22	-5

Next part:
Every second line gives: D2 PAM	Six1-Eya2 blk	TRPML1 agonist	TRPML1 blocker	CtBP-E1A inh	TRPV1 potentiator
O=C(N/N=C/c1ccc([N+](=O)[O-])cc1)c1c[nH]c2ccccc12
  64*	-22	1.4	-9	·	0
CC(C(=O)Nc1ccc(S(=O)(=O)Nc2ncccn2)cc1)N1C(=O)c2ccccc2S1(=O)=O (configuration not stated)
  4	2	0.7	-5	1	10
COc1ccc([N+](=O)[O-])cc1NS(=O)(=O)c1cccc(C(=O)O)c1
  -9	2	0.2	-1	6	-6
CCOc1ccc(S(=O)(=O)NCCC(=O)NCc2ccc(OC)c(OC)c2)cc1
  6	5	-0.5	5	3	?
CC1C2CC(C/C2=N/NC(=O)c2cccs2)C1(C)C (configuration not stated)
  -2	-2	4.8	4	-8	-18
NS(=O)(=O)c1ccc(CCNC(=O)Cc2ccc(S(=O)(=O)N3CCCC3)s2)cc1
  9	-4	1.2	1	-1	-12
CN(C)CCn1c(=S)[nH]c2ccc(Cl)cc2c1=O
  -9	-9	-0.4	6	-5	6
Cc1ccc(-n2nnc3c(SCC(=O)NCc4ccco4)ncnc32)cc1
  1	-1	1.3	6	10	2
Cc1ccc(C(=O)NCc2ccncc2)cc1S(=O)(=O)N1CCOCC1
  -3	7	0.0	-14	5	-10
ONC(=Nc1cccc(C(F)(F)F)c1)c1cccnc1
  -7	0	1.0	13	-9	14

The list goes on, overlapping the part above by four compounds.
Every second line gives: D2 PAM	Six1-Eya2 blk	TRPML1 agonist	TRPML1 blocker	CtBP-E1A inh	TRPV1 potentiator
CN(C)CCn1c(=S)[nH]c2ccc(Cl)cc2c1=O
  -9	-9	-0.4	6	-5	6
Cc1ccc(-n2nnc3c(SCC(=O)NCc4ccco4)ncnc32)cc1
  1	-1	1.3	6	10	2
Cc1ccc(C(=O)NCc2ccncc2)cc1S(=O)(=O)N1CCOCC1
  -3	7	0.0	-14	5	-10
ONC(=Nc1cccc(C(F)(F)F)c1)c1cccnc1
  -7	0	1.0	13	-9	14
COc1ccccc1CNC(=O)c1sccc1-c1ccccc1
  -7	1	5.2	26	9	29
Cc1nc(-c2ccc(S(=O)(=O)Oc3ccc(Cl)cc3Cl)s2)cs1
  -11	29	0.5	53	17	8
Cc1cc(C)n2cc(CSc3nnc(-c4ccccc4)o3)nc2n1
  -2	2	-0.3	-10	-18	19
O=C(COC(=O)Cc1ccc(F)cc1)NC(=O)c1ccccc1
  -4	-2	0.2	-1	3	-35
Cc1ccc(C(=O)CCC(=O)Nc2ncccc2C)cc1
  -2	4	0.4	1	·	17
CCOC(=O)C1=C(C)Nc2nc3ccccc3n2C1c1ccc(O)cc1 (configuration not stated)
  5	7	·	·	8	-8
COCc1nnc(NS(=O)(=O)c2ccc(C)cc2)s1
  -5	6	-0.3	0	10	1
COc1ccc(NC(=S)N(Cc2cccc(Br)c2)CC2CCC(C(=O)O)CC2)cc1 (configuration not stated)
  -5	-1	0.1	32	-1	-5
S=c1[nH]nc(-c2cccc3ccccc23)n1-c1cccnc1
  -13	8	0.3	11	8	20
CCn1nc(CC(C)C)cc1C(=O)N1CCCC(Nc2ccc(F)cc2)C1 (configuration not stated)
  8	1	0.2	-5	-4	-27
Cc1csc(C(=O)NCC(=O)NNC(=O)c2cccc(Cl)c2)c1
  -11	0	-0.3	-2	-7	-1
O=C(Cc1cccs1)N1CCN=C1SCc1cccc(F)c1
  -9	2	-0.2	11	5	17
Cc1ccc(C)c(NC2=C(Cl)C(=O)OC2OC(=O)c2ccco2)c1 (configuration not stated)
  7	6	3.4	7	6	-15
